HIV Env fusion: inhibitors of HIV-1 Env-driven cell-cell fusion, primary screen, HeLa-JRFL effector, CEM21 target cells, luciferase; hit rate 1.1% among 360,000; inhibition, % at 12.3 µM; AID 651610, 2012;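 active = mean replicate inhibition score of at least 50 and every replicate individually at or above 50; inconclusive = only one of the two criteria met; inactive = mean below 50 and not all replicates reaching 50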;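 note: 0% = plate neutral controls and 100% = maraviroc near 300 nM; one replicate is shown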
Rce1 inhib: yeast Rce1p protease inhibitors, primary screen, biochemical, fluorescence, cell-free homogeneous; CAAX prenyl protease 2 (Saccharomyces cerevisiae (strain ATCC 204508 / S288c)), Q03530; yeast membranes, quenched prenylated peptide cleavage fluorescence; calls only; hit rate 0.27% among 290,000;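 active = fall in fluorescence gain of 50% or more versus controls, with final raw signal at or below 3038400; inconclusive = same 50% fall but final raw signal above 3038400; inactive = fall in fluorescence gain under 50%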;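 note: plate controls were neutral control wells for no effect and wells lacking membranes for full effect; tested at 10 µM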
Target sequence (Q03530 whole entry, looked up): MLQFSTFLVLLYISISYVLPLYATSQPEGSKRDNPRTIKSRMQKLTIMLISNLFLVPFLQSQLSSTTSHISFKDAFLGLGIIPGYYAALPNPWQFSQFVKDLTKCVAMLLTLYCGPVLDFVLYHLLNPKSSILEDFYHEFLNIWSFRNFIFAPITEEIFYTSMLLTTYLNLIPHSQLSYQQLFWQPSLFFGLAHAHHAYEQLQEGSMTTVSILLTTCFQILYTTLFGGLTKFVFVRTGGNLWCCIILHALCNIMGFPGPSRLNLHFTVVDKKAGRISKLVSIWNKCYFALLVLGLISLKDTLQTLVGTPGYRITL
MT1-MMP act inh: blockers of MT1-MMP proenzyme processing, primary screen, HT1080 RFP-PRO-GFP cells, GFP/RFP fluorescence. Matrix metalloproteinase-14 (Homo sapiens), P50281. GFP/RFP ratio fluorescence, overnight; percent of plate control window, DMSO zero. GFP/RFP ratio change, % at 20 µM. hit rate 0.061% among 360,000. AID 651647, 2012;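 active = GFP/RFP ratio change of at least 30% with cell ATP level not reduced by more than half and red fluorescence within 50% of control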; note: strong numbers were not always called active
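Assay system: HT1080 RFP-PRO-GFP cells | Dosing: 20 µM single dose, 1% DMSO | Incubation: Cells overnight before dosing, compound overnight, 37 °C, 5% CO2 | Evaluation: GFP/RFP fluorescence ratio | Control set: DMSO-only wells and HT1080 RFP-L50D-GFP cell wells as references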
eIF4H inh: human eIF4H binding inhibitors, primary screen, translation initiation inhibitor project, biochemical, uHTS, fluorescence polarization; Eukaryotic translation initiation factor 4H (Homo sapiens), Q15056; eIF4H fluorescence polarization binding assay; inhibition, % at 35 µM; hit rate 0.94% among 290,000; AID 2012, 2009;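 active = 50% or more with normal probe brightness, or confirmed in later tests; inconclusive = above 50% with abnormal brightness, or retests that disagree; inactive = below 50% or failed in later tests; about a fifth of its hits are not listed in these tables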;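 note: calls also rest on retests at 20 µM and on dose response follow-up; 0% = protein and probe with vehicle and 100% = probe without protein; strong numbers were not always called active; many hits fall short of the cut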
PABP FP inh: PABP poly(A) RNA binding inhibitors, primary screen, biochemical, fluorescence polarization, uHTS. hit rate 1% among 290,000. AID 2014, 2009. Polyadenylate-binding protein 1 (Homo sapiens), P11940. inhibition, % at 35 µM;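 active = 50% or more with normal probe brightness, or confirmed in later tests; inconclusive = above 50% with abnormal brightness, or retests that disagree; inactive = below 50% or failed in later tests; about a fifth of its hits are not listed in these tables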;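 note: calls also rest on retests at 20 µM and on dose response follow-up; controls were probe without protein and protein plus probe with vehicle; some compounds called inactive have numbers as strong as hits; many hits fall short of the cut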
CSC inhib: cancer stem cell viability inhibitors, primary screen, luminescence; hit rate 1.1% among 300,000; inhibition, % at 7.5 µM; cancer stem cell-like cells viability; AID 2717, 2010;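 active = mean at 75% or more and at least half the replicates too; inconclusive = mean and replicates disagree; tested in HMLE shEcad cells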;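 note: 0% = median of negative and 100% = median of positive control wells; the first replicate is given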
Yeast UUG start: modulators of yeast start codon fidelity, primary screen, whole organism, S. cerevisiae, single point, plate reader; AID 602363, 2012; S. cerevisiae UUG-firefly luciferase reporter, luminescence/redox ratio; hit rate 0.13% among 350,000; activity score, % at 18.7 µM;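 active = replicate mean at a twofold rise or more, about +100% in these data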;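 note: firefly luciferase made from a UUG start codon reports start codon fidelity; reporter light over untreated wells divided by growth signal over untreated wells; some hits fall short of that in this replicate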
eIF4H inh retest: second read-out of eIF4H inh, no call of its own (marks repeat the call); inhibition, %; compound at 20 µM; confirmation average;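 mean of two retest wells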
PABP FP inh retest: also measured in PABP FP inh; calls as there; inhibition, %; compound at 20 µM; confirmation repeats;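 mean of two retest wells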
MT1-MMP act inh RFP: second read-out of MT1-MMP act inh, no call of its own (marks repeat the call); RFP signal change, %; measured here: RFP expression control read;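 0 = vehicle wells; hits needed this value within 50% of zero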
Starred values were filed as active, the others as inactive; i = inactive; ? = inconclusive; . = not tested or not shown.

SMILES | HIV Env fusion | Rce1 inhib | MT1-MMP act inh | MT1-MMP act inh RFP | eIF4H inh | PABP FP inh | CSC inhib | Yeast UUG start | others
CCN(CC)S(=O)(=O)c1ccc(S(=O)(=O)N2CCN(C(=O)c3ccco3)CC2)cc1 | -21 | i | 6 | 3 | 4 | 5 | -9 | -13
CC1(C)CC(NC(=O)C23CCC(C)(C2Br)C3(C)C)CC(C)(C)N1 (stereo unspecified) | 17 | i | 2 | 1 | 3 | 0 | -6 | -6
CCC(=O)N1CCN(c2ccc(NC(=S)NC(=O)c3cccc([N+](=O)[O-])c3)cc2)CC1 | . | i | 3 | -7 | -4 | -14 | -6 | -19
Cc1ccc(NC(=S)NCCc2ccc(S(N)(=O)=O)cc2)cc1C | 13 | i | 3 | 5 | 5 | 0 | -2 | -38
CC1Sc2ccc(S(=O)(=O)CCC(=O)NCc3ccccc3)cc2NC1=O (stereo unspecified) | 3 | i | -4 | 0 | -6 | 6 | -10 | -7
CCOc1ccc(-n2c(C)cc(/C=N/N(C)C)c2C)cc1 | 6 | i | -1 | -3 | -8 | -4 | -3 | .
CC(C)Oc1ccc(/C=C/C(=O)NCC2COc3ccccc3O2)cc1 (stereo unspecified) | -16 | i | 1 | -4 | 0 | 7 | 11 | .
COc1ccc(CCN(C)C(=O)CCCN2C(=O)c3cccc4cccc(c34)C2=O)cc1OC | 2 | i | 7 | 7 | 3 | 4 | -27 | 1
CCOC(=O)N1CCN(C(=O)CCSc2ccc(C)cc2)CC1 | . | i | . | . | 14 | -18 | -16 | -12
O=C(COC(=O)c1ccccc1Br)Nc1ccccc1F | -14 | i | -2 | 0 | -5 | -15 | 10 | .
Cc1ccc(C(=O)NCc2ccccn2)o1 | 3 | i | -12 | 8 | 66 | -6 | 15 | -31 | eIF4H inh retest=-22;PABP FP inh retest=5
CCCc1cc(=O)oc2cc(OCC(=O)NCCCN3CCOCC3)ccc12 | 6 | i | -3 | 1 | . | . | -15 | -1
Cc1nc2ccccc2c(=O)n1NC(=O)c1cncc(Br)c1 | 8 | i | 1 | 2 | -2 | -1 | -13 | .
O=C(CN1C(=O)CCC1=O)Nc1ccc(Cc2ccc(NC(=O)CN3C(=O)CCC3=O)cc2)cc1 | 7 | i | -2 | 4 | -5 | -9 | -18 | -6
COc1cccc(CNc2nc3ccc(NC(C)=O)cc3s2)c1 | 1 | . | 0 | -3 | . | . | . | -3
O=C(O)c1cnc(-c2ccccc2)nc1C(F)(F)F | -18 | i | -1 | 3 | -2 | 0 | -7 | .
Oc1ccc(-c2nccc(-c3ccc(Br)cc3)n2)cc1 | -13 | i | 0 | 2 | -10 | 6 | 51 | -17
CCCCOC(=O)C1C2C=C[C@]3(CN(CCCOC)C(=O)[C@H]13)O2 (stereo partly specified) | . | i | 0 | 0 | 5 | 3 | -6 | .
CCOC(=O)C1CCN(CC(O)COc2ccc(C(C)(C)C)cc2)CC1 (stereo unspecified) | . | i | 5 | 2 | -13 | 0 | -4 | -8
COc1ccc(NCc2cc(=O)[nH]c3ccccc23)cc1 | -2 | i | 0 | -3 | 22 | 10 | -4 | 3
CC(C)C(=O)N1CCN(c2cc(N3CCN(C)CC3)c(F)cc2[N+](=O)[O-])CC1 | 18 | i | 5 | -1 | -4 | -2 | -1 | .
Cn1c(SCC(=O)N2CCCC2)nnc1-c1ccc(S(=O)(=O)N2CCCC2)cc1 | 13 | i | -2 | -4 | -7 | -14 | . | -6
NC(=S)N/N=C/c1ccc(C(F)(F)F)cc1 | 50 | i | -8 | -10 | 5 | -8 | 12 | .
Cc1ccc(CS(=O)(=O)CCC(=O)O)cc1 | -13 | i | -5 | -6 | -3 | 33 | -7 | -4
CN(C)CC[n+]1ccc(C(=O)c2ccccc2)cc1 | -27 | i | -2 | 0 | -6 | 10 | -7 | -7
Cc1ccccc1S(=O)(=O)Cc1ccc(C(=O)NCCN(Cc2ccccc2)C(C)C)o1 | 13 | i | 3 | 4 | . | . | -10 | -9
Cc1ccc(-c2cn3cccnc3n2)cc1NC(=O)c1c(-c2ccccc2Cl)noc1C | 23 | ? | 0 | -3 | -6 | -8 | 22 | -2
CC(C)c1ccc(NC(=O)CCS(=O)(=O)c2cccc3nonc23)cc1 | -14 | i | 1 | 1 | 3 | 4 | 19 | -5
COc1ccc(C(=O)NCCc2cnc[nH]2)cc1OC | -4 | i | 6 | 4 | -3 | -2 | -8 | -11
NS(=O)(=O)c1ccc(NC(=O)COC(=O)C2(c3ccc(F)cc3)CCCC2)cc1 | 0 | i | 1 | -9 | 2 | 15 | -11 | -12
CCOc1ccc(NC(=O)Nc2cccs2)cc1 | -172 | i | 1 | 2 | -12 | 2 | 13 | -14
O=c1[nH]c2ccc(N=Cc3c(O)ccc4cc(Br)ccc34)cc2[nH]1 | 13 | i | -3 | 3 | 40 | 0 | . | .
O=C(Nc1cccc(-c2ccccc2)c1)N1CCN(C(=O)Nc2cccc(-c3ccccc3)c2)CC1 | -11 | i | 4 | 1 | -4 | 3 | 6 | -21
CC(=O)Nc1ccc(C(=O)OCC(=O)NCCC2=CCCCC2)cc1 | 16 | . | 5 | 11 | . | . | . | -7
Cc1ccc(NCc2ccccc2O)cc1 | -1 | i | 7 | 6 | -2 | -3 | . | -1
CCCCNC(=O)C1(C)CCCCN1C(=O)c1ccc(OC)c(C(F)(F)F)c1 (stereo unspecified) | 29 | . | 1 | 4 | . | . | . | 2

Structural class, the compounds so far with an NH in an aromatic ring (three)
SMILES | HIV Env fusion | Rce1 inhib | MT1-MMP act inh | MT1-MMP act inh RFP | eIF4H inh | PABP FP inh | CSC inhib | Yeast UUG start | others
COc1ccc(NCc2cc(=O)[nH]c3ccccc23)cc1 | -2 | i | 0 | -3 | 22 | 10 | -4 | 3
COc1ccc(C(=O)NCCc2cnc[nH]2)cc1OC | -4 | i | 6 | 4 | -3 | -2 | -8 | -11
O=c1[nH]c2ccc(N=Cc3c(O)ccc4cc(Br)ccc34)cc2[nH]1 | 13 | i | -3 | 3 | 40 | 0 | . | .

Carrying on.
SMILES | HIV Env fusion | Rce1 inhib | MT1-MMP act inh | MT1-MMP act inh RFP | eIF4H inh | PABP FP inh | CSC inhib | Yeast UUG start | others
Cc1ccc(C(=O)NCC(=O)N/N=C/c2cccs2)cc1[N+](=O)[O-] | 2 | i | -1 | 3 | 6 | -8 | . | .
O=S(=O)(c1ccc(Oc2ccc(Br)cc2)cc1)N1CCOCC1 | . | i | -4 | -24 | -7 | 5 | . | 0
Cc1cc(C)nc(NC(=O)c2ccccc2O)n1 | 6 | i | -3 | -1 | 13 | 11 | 7 | -7
Cc1cc(C(=O)OCC(=O)N2CC(C)OC(C)C2)ccc1[N+](=O)[O-] (stereo unspecified) | 10 | i | -2 | -1 | -10 | 15 | -10 | .
O=C(O)c1ccc2c(=O)n(-c3ccc(F)cc3)c(=S)[nH]c2c1 | -4 | . | -1 | 2 | -10 | -5 | -2 | -14
COCC(=O)Oc1cc(-c2ccc(C)cc2C)c(OC(=O)COC)c(-c2ccc(C)cc2C)c1 | -27 | . | -16 | -17 | . | . | . | -23
CCCc1nnc(NC(=O)c2ccc([N+](=O)[O-])cc2)s1 | . | i | 1 | -3 | -8 | 6 | 6 | -20
CCOC(=O)CNC(=O)CSc1nnc(-c2ccccc2)n1Cc1ccco1 | . | . | 5 | 3 | 3 | 9 | -13 | -7
O=C(N/C(=C\c1cccnc1)C(=O)N1CCCCC1)c1cccc(Br)c1 | 11 | i | 2 | 5 | 0 | 8 | . | -14
CCOC(=O)CN(C(=O)c1ccccc1)c1ccccc1C | . | i | 1 | 8 | 4 | 3 | -9 | -3
CCC(Cc1ccccc1)NC(=O)C1CCN(S(=O)(=O)c2c(C)noc2C)CC1 (stereo unspecified) | -53 | i | 4 | -1 | 11 | 14 | -6 | -5
Fc1ccc(CNc2nc3ccccc3n3nnnc23)cc1 | -2 | i | -15 | 2 | ? | ? | -2 | -8

5 compounds already listed, sorted by number of heavy atoms, ascending.
SMILES | HIV Env fusion | Rce1 inhib | MT1-MMP act inh | MT1-MMP act inh RFP | eIF4H inh | PABP FP inh | CSC inhib | Yeast UUG start | others
Fc1ccc(CNc2nc3ccccc3n3nnnc23)cc1 | -2 | i | -15 | 2 | ? | ? | -2 | -8
O=S(=O)(c1ccc(Oc2ccc(Br)cc2)cc1)N1CCOCC1 | . | i | -4 | -24 | -7 | 5 | . | 0
Cc1cc(C(=O)OCC(=O)N2CC(C)OC(C)C2)ccc1[N+](=O)[O-] (stereo unspecified) | 10 | i | -2 | -1 | -10 | 15 | -10 | .
O=C(N/C(=C\c1cccnc1)C(=O)N1CCCCC1)c1cccc(Br)c1 | 11 | i | 2 | 5 | 0 | 8 | . | -14
CCOC(=O)CNC(=O)CSc1nnc(-c2ccccc2)n1Cc1ccco1 | . | . | 5 | 3 | 3 | 9 | -13 | -7

Next structures follow:
SMILES | HIV Env fusion | Rce1 inhib | MT1-MMP act inh | MT1-MMP act inh RFP | eIF4H inh | PABP FP inh | CSC inhib | Yeast UUG start | others
Cc1ccc(S(=O)(=O)N(C)C)cc1NC(=O)CSc1nncs1 | -8 | i | 0 | -1 | . | . | . | -21
COc1ccccc1CN1CCNC(=O)C1CC(=O)N(C)Cc1nc(C)cs1 (stereo unspecified) | -15 | i | -4 | 4 | 2 | -5 | -9 | -28
Nc1nc(Nc2cccc(Cl)c2)nc(NCc2ccco2)c1[N+](=O)[O-] | 76* | i | 6 | -9 | -9 | 7 | 71 | .
CC(NC(=O)/C=C/c1ccco1)c1nc2ccccc2n1Cc1c(Cl)cccc1Cl (stereo unspecified) | -26 | i | -4 | -4 | 2 | 9 | 37 | .
CCOc1cc(/C=N/NC(=O)c2nnn(-c3nonc3N)c2C)ccc1OCc1ccc(C)cc1 | 7 | . | 7 | 0 | . | . | . | -9
Cc1nc(SCC(=O)Nc2cccnc2Cl)nc(C)c1C | -13 | i | 7 | 1 | -7 | 18 | 0 | -13
O=S(=O)(c1cc(Cl)cc(Cl)c1O)N1CCC2(CC1)OCCO2 | 0 | i | -2 | 1 | -12 | 7 | -11 | -10
Cc1cccc(C)c1NC(=O)C1CCCN1S(=O)(=O)c1ccc2c(c1)n(C)c(=O)c(=O)n2C (stereo unspecified) | . | i | -2 | 6 | -6 | 5 | -4 | 7
Cc1cccc(N2CCN(S(=O)(=O)c3ccc4c(c3)C(C)(C)C(=O)N4C)CC2)c1C | 10 | i | -2 | -3 | 46 | 23 | 9 | -12
Cc1cc(C)n(C(C)CNC(=O)c2ccc3c(c2)OCO3)n1 (stereo unspecified) | 7 | . | -2 | 2 | -4 | -2 | -7 | -4
CC1Cc2ccccc2N1C(=O)CSc1nc2c(c(=O)n(C)c(=O)n2C)n1Cc1ccccc1 (stereo unspecified) | 56* | i | -12 | -10 | -3 | 8 | 1 | -3
c1ccc2c(Cn3nnc4ccccc43)cccc2c1 | . | i | 2 | 0 | -8 | 10 | . | -1
